Screens: PubChem, National Center for Advancing Translational Sciences (NCATS)
gsp antag: antagonizes gsp, the McCune-Albright syndrome mutation. gsp-mutant cells, cAMP HTRF, 30 min; control for the full effect not named in the record. Potency, µM (doses to about 76.9 µM), inactives show at the top dose activity change, negative = inhibition, hits mostly inhibitors. 340,000 compounds, 0.4% hits; active = falling curve of any shape with a large fitted effect; inconclusive = falling curve, mostly with a smaller effect; inactive = flat or rising curve; cell line not stated here;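 note: intracellular cAMP measured with PDE inhibitor Ro 20-1724 present during compound exposure; potency is the fitted concentration of half-maximal effect; % is set by controls: 0 for no effect and ±100 for the full control effect; nearly all actives have a fitted effect of over 65% in size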
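HTRF cAMP measurement after 30 min RT detection following 30 min, 37C compound treatment alongside […] (added as 300 uM solution) in G418-selected cells seeded at 2000/well and grown 16–24 h.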
TRPML1 inh: inhibitors of human TRPML1 channel; 390,000 compounds, 0.02% hits; activity change, negative = inhibition, % (no concentration beside the values); AID 624415; TRPML1-inducible cells, Ca2+ dye fluorescence, FDSS; hits give low values; inhibition of EC80 agonist-evoked calcium signal; in the data active means activity change below about -50%; inconclusive means about -30% to -50%; inactive means above about -30%;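 note: stimulus is agonist 54-4 at its EC80 concentration; % is set by controls: 0 for no effect and ±100 for the full control effect; compound concentration not given in the record; the text of the record puts the active cut at -80%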
Target sequence (Q9GZU1 whole entry, looked up): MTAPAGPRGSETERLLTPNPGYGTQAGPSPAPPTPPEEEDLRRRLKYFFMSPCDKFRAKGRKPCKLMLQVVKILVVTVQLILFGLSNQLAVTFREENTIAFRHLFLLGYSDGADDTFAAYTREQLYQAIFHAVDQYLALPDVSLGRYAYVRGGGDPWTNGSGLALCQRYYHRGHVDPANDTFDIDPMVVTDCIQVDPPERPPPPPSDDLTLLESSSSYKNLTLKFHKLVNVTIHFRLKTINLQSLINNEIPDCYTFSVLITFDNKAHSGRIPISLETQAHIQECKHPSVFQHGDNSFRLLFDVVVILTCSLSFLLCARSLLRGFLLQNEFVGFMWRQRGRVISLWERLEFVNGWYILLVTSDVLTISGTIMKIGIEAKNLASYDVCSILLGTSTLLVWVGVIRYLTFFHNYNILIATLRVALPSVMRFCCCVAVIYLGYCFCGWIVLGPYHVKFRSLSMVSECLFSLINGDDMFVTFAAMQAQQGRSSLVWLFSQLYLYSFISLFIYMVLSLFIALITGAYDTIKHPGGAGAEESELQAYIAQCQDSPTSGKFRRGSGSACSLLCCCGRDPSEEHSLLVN
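Tet-induced TRPML1-DL cells loaded with Ca8 no-wash calcium dye were read kinetically on FDSS. Compound addition was followed by EC80 agonist 54-4 (4 uM final); inhibition was read over 110 s.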
Menin-MLL FL inh: inhibitors of human menin-MLL interaction, wild-type MLL peptide; AID 1766; 290,000 tested, under 10 active; Fluorescence polarization, fluorescein-MLL peptide displacement from menin; FP activity change, % at 61.4 µM; inconclusive = falling polarisation curve, or a change in total fluorescence; inactive = total fluorescence flat and polarisation flat or rising; no compound was filed as active; the % refers to the polarisation; negative = inhibition;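 note: % of control where 0% means no effect; inhibitors lower the polarisation; unlabelled MLL peptide was the positive control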
TRPML1 ag: agonists of human TRPML1 channel; AID 624414; 410,000 compounds, 0.12% hits; Q9GZU1; activation, % (test concentration not listed); TRPML1-expressing cells, Ca2+ dye fluorescence, FDSS; host cell line not named in the record; reference of the full effect not given here; in the data active = activation above about 50%; inconclusive = about 30% to 50%; inactive = below about 30%; note: 0% is about no effect; the text of the record puts the active cut at 80%
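Agonist activity was taken from a 110 s kinetic Ca2+ dye read on the FDSS after pinning compounds onto TRPML1-DL cells. The cells were seeded at 1,500/well with Tet inducer, incubated about 16 h, then dye-loaded at room temperature.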
ClpP mod: qHTS Assay for Activators of ClpP; 340,000 compounds, 1.9% hits; purified B. subtilis ClpP, FRET peptide cleavage, 20 min; ATP-dependent Clp protease proteolytic subunit (Bacillus subtilis (strain 168)), P80244; Potency, µM (top dose mostly 57.5 µM), without a hit: top-dose activity change, negative = active; active = well fitted falling curve with a large enough effect; inconclusive = small, poorly fitted or top-dose-only effect; inactive = no such curve, though single readings can be large or run the other way; note: potency is the fitted concentration of half-maximal effect; the source files actives as falling curves though it sought activators and does not explain the sign; nearly all actives have a fitted effect of over 65% in size; many hits overshoot -100%
Target sequence (P80244 whole entry, looked up): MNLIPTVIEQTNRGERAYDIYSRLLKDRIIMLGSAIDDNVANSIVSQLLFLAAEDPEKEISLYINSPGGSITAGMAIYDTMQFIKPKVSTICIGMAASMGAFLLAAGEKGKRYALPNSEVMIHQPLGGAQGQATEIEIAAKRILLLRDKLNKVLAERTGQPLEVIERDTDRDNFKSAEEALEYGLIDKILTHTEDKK
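ClpP 10 microg/mL final, pH 8 Tris/KCl buffer with BSA, glycerol, Tween-20; compound pinned in; FRET-FV substrate; RT 20 min; Ex320/Em430; ΔFRET vs ADEP 5.8 microM, DMSO, no enzyme.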
gsp agonist: activates gsp, the McCune-Albright syndrome mutation; Potency, µM (series often up to 76.9 µM), for inactives: at the highest dose activation (cAMP increase), most hits filed as activators; 340,000 compounds, 0.13% hits; gsp mutant cells, cAMP HTRF, 30 min; control for the full effect not named in the record; active = well fitted activation curve with a large enough effect; inconclusive = small, poorly fitted or top-dose-only effect, or another doubt; inactive = no such curve, though single readings can be large or run the other way; cell line not stated here;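 note: phosphodiesterase inhibitor Ro 20-1724 added with compounds to block cAMP breakdown; potency is the fitted concentration of half-maximal effect; nearly all actives have a fitted effect of over 60% in size; about a fifth of the inactives were tested at one dose only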
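Cells in DMEM/10% FBS with G418 were pretreated with compounds in DMSO plus […] (300 uM stock) for 30 min at 37C. cAMP was measured by HTRF (cAMP-d2 plus anti-cAMP antibody-K) after 30 min at room temperature.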
An asterisk follows results filed as active; ? = inconclusive; / = no result given; [ ] = dose if it differs, or a comment.

SMILES | gsp antag | TRPML1 inh | Menin-MLL FL inh | TRPML1 ag | ClpP mod | gsp agonist
COc1ccc2c(-c3ccccc3)cc(=O)[nH]c2c1 | 8% | -5 | 0.0 | 1.0 | -20% | 6%
CCCC[C@H]1COCCS(=O)(=O)N1Cc1ccc(C)cc1 | 9% | -12 | -5.2 | -1.2 | 2.1% | /
COc1ccc(C(=O)Nc2ccc(NC(=O)c3cccs3)cc2)cc1Cl | 0% | 8 | 3.7 | 0.3 | 21% | 11%
CC1CCN(S(=O)(=O)c2csc(C(=O)Nc3ccccc3)c2)CC1 | 0% | 4 | 1.8 | 2.2 | -20% | 3%
C=CCNC(=O)CCCC(=O)NCC=C | 15% | -3 | 1.0 | 1.7 | -0.7% | 1%
O=C(N/N=C/c1cc(Br)c(Br)s1)c1ccncc1 | -1% | -3 | -1.7 | -1.2 | -0.2% | -1%[15.4 µM]
COc1ccc(N(Cc2cc3ccccc3[nH]c2=O)S(=O)(=O)c2ccc(C)cc2)cc1 | 2% | 4 | -0.2 | 2.5 | -20% | -1%
O=c1[nH]c2cc3c(cc2cc1CN(CCCO)C(=S)NCc1ccco1)OCO3 | 5% | -11 | -3.6 | 1.1 | 3.9% | -23%
COC(=O)CSc1nnc(-c2ccc(OC)cc2OC)o1 | ? | 12 | 4.1 | 0.2 | -1.1% | -11%
CCC(=O)Nc1nc2ccc(NC(C)=O)cc2s1 | 4% | 10 | 2.1 | -0.4 | -1.3% | 9%
COc1cc2ccccc2cc1C(=O)Nc1cccc(-c2nc3cc(C)c(C)cc3o2)c1 | / | 17 | / | -0.2 | -8.4% | /
Cc1ccc(C(=O)N2CCN(C)CC2)cc1S(=O)(=O)N1CCCCC1 | 11% | 1 | 3.1 | 0.8 | 15% | -40%[inhibitor]
CN(C(=O)c1ccccc1F)C(c1ccccc1)c1ccccc1 | -26% | -20 | 6.4 | 1.2 | / | 1%
Cc1ccc(-c2csc(N(Cc3ccccc3)C(=O)COc3ccccc3)n2)cc1 | 13% | 0 | -1.9 | -0.2 | 1.4% | 0%
Cc1ccc(Cl)cc1NC(=O)NCc1ccccn1 | 7% | -3 | -1.7 | 1.0 | -2.3% | 5%
COc1cccc2cc(C(=O)CC3(O)C(=O)N(Cc4ccccc4)c4ccccc43)c(=O)oc12 (configuration not stated) | 0% | -3 | 0.4 | -0.3 | 2.1% | -5%
CCC(CC)NCC(O)COc1ccc(Br)cc1 (configuration not stated) | 5% | -14 | -0.7 | 0.5 | / | 3%[15.4 µM]
CN(c1ccccc1)S(=O)(=O)c1ccc(C(=O)Nc2nnc(-c3ccco3)o2)cc1 | -17% | 32 | 3.6 | 0.0 | / | 7%
COC(=O)c1ccc(S(=O)(=O)NCc2ccccn2)n1C | -3% | -5 | 2.3 | -0.3 | -1.6% | -6%
CCN(CC(=O)Nc1c(F)cccc1F)C(=O)c1ccc2ncsc2c1 | 4% | -2 | / | 0.4 | -1.0% | -43%[inhibitor]
CCc1c(C(=O)NC2CCCc3ccccc32)[nH]c(C)c1C(C)=O (configuration not stated) | 4% | 10 | -1.2 | 2.7 | -0.4% | 8%
O=C1CN(c2nc(-c3ccccc3)c3ccccc3n2)c2ccccc2N1 | -7% | 0 | 11 | 2.1 | -1.8% | 26%
CCC(=O)Nc1cc(Cl)ccc1N1CCN(C(=O)CC)CC1 | -9%[15.4 µM] | 19 | -7.6 | 1.7 | -2.1% | -59%[inhibitor]
Cc1cc(C)cc(NC(=O)NC2CCN(CC(=O)Nc3cccc(Cl)c3C)CC2)c1 | -9% | 1 | -0.7 | 0.9 | / | -1%[15.4 µM]
Cc1ccc(C)c(CN2C(=O)c3ccccc3S(=O)(=O)c3ccc(C(=O)N(C)C4CCCCC4)cc32)c1 | / | 30 | / | 1.8 | -2.6% | /
COC(=O)c1c(NC(=O)c2ccccc2)sc2c1CC(C)(C)NC2(C)C | 6% | -1 | -8.4 | -0.3 | -0.2% | -29%
CN(C)S(=O)(=O)N1CCc2ccccc21 | -7% | 0 | 3.4 | -0.1 | -1.4% | 3%
O=C(Nc1ccccc1C(=O)O)c1cc(S(=O)(=O)N2CCOCC2)cs1 | -2% | -4 | 0.1 | -0.9 | / | -10%
COc1cc(C(=O)N2CCN(C/C=C/c3ccccc3)CC2)cc(OC)c1C | -14% | 3 | 1.4 | -0.7 | -0.6% | ?
CCN(CC)C(=O)CN(c1cc2c(cc1OC)oc1ccccc12)S(=O)(=O)c1ccccc1 | -13% | 61 | 0.0 | 1.1 | -11% | 22%
COc1ccccc1C(=O)Nc1ccc2c(c1)CN(Cc1cnc(C)s1)CC2 | -13% | -2 | / | -0.3 | -3.1% | -28%
O=C(CSCCO)Nc1nccs1 | -6% | -18 | 1.5 | 0.1 | 0.8% | -33%
O=C1N/C(=N/N=C/c2ccc(F)cc2)SC1c1ccccc1 (configuration not stated) | -13% | 16 | 8.1 | 1.7 | 1.8% | -51%[inhibitor]
CCN1CCN(C(c2cccs2)C(C)NS(=O)(=O)c2ccc(F)cc2)CC1 (configuration not stated) | 11% | 46 | 1.3 | 0.4 | -0.7% | 11%
C=C(C)C(C)(C#CCN1CCCC1)OC(C)=O (configuration not stated) | 5% | 23 | 4.3 | -0.7 | -0.8% | -9%
CCS(=O)(=O)c1ncc(Cl)c(C(=O)Nc2c(C(=O)c3ccc(C)cc3)oc3ccccc23)n1 | / | -15 | / | 0.0 | 1.7% | /
COc1ccc(N=C(c2ccccc2)c2c(C)[nH]n(-c3ccccc3)c2=O)c(OC)c1 | -34% | 7 | -1.9 | 0.1 | / | -14%[15.4 µM]
COc1ccc(-c2nnc(SCC(=O)N3CCCC3)o2)cc1OC | -8% | 11 | / | 1.7 | -2.9% | 10%
CCOC(=O)c1c(C)nc(C)c(C(=O)OCC)c1-c1ccccc1 | 4% | 29 | 1.5 | 1.9 | -2.3% | 22%
Cc1ccc(C(=O)NC2CCN(C(=O)NC3CCCCC3)CC2)cc1 | 14% | 7 | -0.1 | 0.2 | -1.3% | -4%[15.4 µM]

2 entries drawn at random from the list so far:
SMILES | gsp antag | TRPML1 inh | Menin-MLL FL inh | TRPML1 ag | ClpP mod | gsp agonist
O=C(CSCCO)Nc1nccs1 | -6% | -18 | 1.5 | 0.1 | 0.8% | -33%
C=C(C)C(C)(C#CCN1CCCC1)OC(C)=O (configuration not stated) | 5% | 23 | 4.3 | -0.7 | -0.8% | -9%

Next structures follow:
SMILES | gsp antag | TRPML1 inh | Menin-MLL FL inh | TRPML1 ag | ClpP mod | gsp agonist
O=C(OCC(=O)N(CCc1ccccc1)Cc1ccccc1)c1ccc(F)c(S(=O)(=O)N2CCOCC2)c1 | -5% | 26 | / | -0.3 | 0.0% | 1%
Cc1ccc(/C=N/NC(=O)c2nnn(-c3nonc3N)c2CN(C)C)o1 | -9% | 6 | -3.8 | -0.2 | -2.4% | -4%[15.4 µM]
CCOc1ccccc1NC(=O)CCS(=O)(=O)c1ccc2c(c1)CC(C)N2C(C)=O (configuration not stated) | 7% | 12 | / | 0.5 | 0.3% | 3%
Cc1ccc(NC(=O)c2ccco2)c(NC(=O)c2ccc(Cl)cc2)c1 | / | 34 | -3.9 | 2.0 | / | 4%[15.4 µM]
O=C(CSc1cn(CCNC(=O)c2c(F)cccc2F)c2ccccc12)Nc1ccc2c(c1)OCCO2 | / | -6 | / | 2.5 | 0.9% | /
CSCC(O)Cn1[nH]c(=O)c2cc(Cl)c(Cl)cc2c1=O (configuration not stated) | -28% | -4 | -0.1 | 0.5 | / | 4%[15.4 µM]
O=C(c1cc2c(=O)n3ccccc3nc2s1)N1CCN(c2cccc(Cl)c2)CC1 | -8% | 0 | -1.0 | -0.2 | / | -17%[15.4 µM]
CCOC(=O)N1CCN(C(=O)C2CCCN(S(=O)(=O)c3ccccc3)C2)CC1 (configuration not stated) | 2% | 12 | -0.1 | 0.7 | -0.9% | -8%
O=C(CSc1nnc(-c2ccccc2Cl)n1Cc1ccco1)Nc1ccc2c(c1)OCCO2 | -14% | 14 | 3.1 | -0.4 | 0.1% | -83%[inhibitor]
C[C@@H]1CCCCO[C@H](CN(C)Cc2ccc(C(=O)O)cc2)[C@@H](C)CN([C@H](C)CO)C(=O)c2cc(N(C)C)ccc2O1 | / | -8 | / | -0.6 | -3.8% | ?
CCC(C)NC(=O)c1sc2ncccc2c1-n1c(C)ccc1C (configuration not stated) | / | 4 | / | 1.8 | -1.1% | /
O=C(COC(=O)CC1c2ccccc2CCN1S(=O)(=O)c1ccccc1)Nc1ccccc1 (configuration not stated) | -19% | 11 | 5.1 | 2.4 | 0.6% | -32%[inhibitor]
O=S(=O)(/N=C(/Nc1cccc2ccccc12)c1ccc(F)cc1)c1ccccc1 | 1% | 31 | -3.1 | 0.7 | 1.4% | -16%
CCOc1ccc(Nc2nc(N)c([N+](=O)[O-])c(N3CCOCC3)n2)cc1 | 3% | -3 | 2.1 | -0.6 | 1.5% | 17%[15.4 µM]
Cc1ccc(C(C(=O)NCC2CCCO2)N(C(=O)c2snc(C(N)=O)c2N)c2ccc3c(c2)OCCO3)cc1 (configuration not stated) | -13% | 3 | -5.8 | -0.2 | / | -12%
O=C(CSc1nc2ccccc2c(=O)n1CCCN1CCOCC1)Nc1ccc2c(c1)OCO2 | -10% | 4 | -4.8 | 1.2 | / | -3%[15.4 µM]
O=C(c1ccc(F)cc1)N1CCCC(c2nc(-c3cccs3)no2)C1 (configuration not stated) | -1% | -12 | 0.0 | 1.7 | 0.7% | -93%[inhibitor]
COc1ccc(C2CCc3cc(OC)c(OC)cc3C2NC=O)cc1OC (configuration not stated) | / | -5 | / | -0.8 | -17% | 32%
O=C(Nc1ccc2c(c1)OCO2)N1CCN(c2ncc(C(F)(F)F)cc2Cl)CC1 | 16% | -17 | 6.1 | 0.6 | -0.5% | 2%
O=C1CCCN1CCCNCC(O)c1ccccc1 (configuration not stated) | 1% | 3 | 7.1 | 0.7 | / | -29%
COC(=O)c1ccccc1N=NNc1ccc([N+](=O)[O-])cc1 | / | -4 | / | 0.1 | 0.2% | -7%
COc1ccccc1NC(=O)C(=O)NCC(c1ccco1)N1CCc2ccccc2C1 (configuration not stated) | -3% | -2 | / | 1.7 | -4.8% | 17%[15.4 µM]
O=C(Nc1ccccc1F)C(=O)c1cn(CC(=O)N2CCCCC2)c2ccccc12 | -14% | 7 | 1.5 | -0.5 | / | 18%[15.4 µM]
Cc1nc(NC(=O)c2ccc(F)cc2)nc2cc3c(cc12)OCO3 | 9% | 7 | 1.5 | 0.1 | -9.0% | 0%
O=C(COC(=O)[C@@H]1CCCN1C(=O)c1cccs1)Nc1cccc(Cl)c1 | -5% | 22 | / | 5.2 | 1.1% | -16%
C=CCCO[C@@H]1O[C@@H](C)[C@H](O)C[C@H]1O | 6% | 13 | / | 0.1 | 0.2% | /
CCCc1nc2sc3ccccc3c(=O)c2c(=O)n1Cc1ccc(OC)cc1 | -16% | 24 | 11 | 2.7 | / | 2%[15.4 µM]
